LANA-nucl inh – inhibitors of KSHV LANA binding to nucleosomes; FITC-LANA1-23 / chicken nucleosome fluorescence polarization; stronger effect = lower value; z-score (concentration not given with the values); hit rate 0.3% among 51,000;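 active = both repeat wells score below -2 in polarization z-score versus plate sample wells, excluding overly bright wells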;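 note: 100 nL library stock added to about 30 µL; numbers are from one replicate; some results filed as inactive read as strong as hits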
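test system = FITC-LANA peptide and chicken nucleosomes | amount = 240 nM purified chicken nucleosomes (480 nM peptide binding sites), final | reagent = 50 nM FITC-LANA1-23 probe | medium = TEN-BT buffer, pH 7.5 | doses = single compound addition by pin transfer, 100 nL per well | timing = 10–45 min, room temperature | detection = fluorescence polarization | repeats = duplicate plates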
BasE inh – inhibitors of Acinetobacter baumannii siderophore enzyme BasE. purified BasE, fluorescence polarization binding displacement. inhibition, % (no concentration beside the values). hit rate 0.1% among 84,000. AID 485350;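 active = both replicates above 25% with normal brightness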;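 note: 0% = negative plate control signal and 100% = positive plate control signal; stock transfer was 100 nL into about 30 µL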
Active calls of the source: *; . = not tested or not shown; & = joins results of further samples. These rows are one share of the data (hit frequency here may not be typical).

no.	SMILES	LANA-nucl inh	BasE inh
1	C=CCN1C(=O)C(CC(=O)NCC)SC1=Nc1ccccc1OC (stereo unspecified)	-0.381	1.9
2	CCOC(=O)c1cn(CC)c2cc(F)c(F)cc2c1=O	.	-0.1
3	O=C(O)COc1ccc(NC(=O)c2ccccc2F)cc1	1.64	0.2
4	Cc1cc(N/C=C(\C#N)C(=O)c2cc(C)oc2C(F)(F)F)no1	0.308	1.9
5	CSc1nc(Sc2ccccc2)c(C#N)c(Sc2ccccc2)n1	-0.429	-0.3
6	O=C(N/N=C/c1ccc(F)cc1)c1n[nH]c2c1CCC2	-0.182	0.5
7	N#CCOc1ccc(Cl)c(Cl)c1	-0.161	-13.2
8	CCC(Sc1nc2ncccc2o1)C(=O)Nc1cc(OC)ccc1OC (stereo unspecified)	-0.514	0.1
9	CC(=O)OCOC(c1ccc2ccccc2c1)P(=O)(OCOC(C)=O)OCOC(C)=O (stereo unspecified)	0.203	-3.2
10	COc1ccc(N/C=C2/Sc3ccccc3NC2=O)cc1	0.629	.
11	Cc1ccccc1CSCC(=O)Nc1c[nH]c(=O)[nH]c1=O	-1.48	2.5
12	Cc1cccc(N2CCN(C(=O)c3ccc(CS(=O)(=O)Cc4cccc(Cl)c4)o3)CC2C)c1 (stereo unspecified)	2.28	-3.4
13	O=c1c2c(F)c(F)c(F)c(F)c2on2c3c(cc12)CCCC3	.	3.1
14	C=CCN(Cc1nc(-c2ccccc2)no1)C(=O)c1ccccc1	-1.25	1.9
15	C1=C(c2ccccc2)N2CCCCN=C2S1	.	-4.0
16	Cn1nnnc1SCCNCC#Cc1ccccc1	-0.504	-3.3
17	C=CCNC(=O)c1c(N)n(-c2cccc(C(=O)O)c2)c2nc3ccccc3nc12	.	21.4
18	COc1ccc(C(=O)OCC(=O)n2c(C)c(C)c3ccccc32)cc1	.	2.4
19	CC1CN(S(=O)(=O)c2ccc(N3C(=O)CC4(CCCC4)C3=O)c(Cl)c2)CC(C)O1 (stereo unspecified)	.	0.2
20	CSc1n[nH]c(N)c1S(=O)(=O)c1ccccc1	0.992	-0.2
21	COc1cc(CC(=O)OCC(=O)N(C)C2CCCCC2)cc(OC)c1OC	.	-3.1
22	Cc1nn(Cc2ccccc2Cl)c2sc(C(=O)NCCN3CCOCC3)cc12	.	-2.8
23	COC(=O)/C(=C(/O)CSc1nnc(-c2ccc(C)cc2)o1)c1nc2ccccc2[nH]1	.	3.3
24	Cc1ccc(C(CC(=O)O)NC(=O)CN2C(=O)c3ccccc3C2=O)cc1 (stereo unspecified)	.	0.9
25	O=C(Cc1ccc2c(c1)OCCO2)N/N=C/c1ccc(-c2ccc(F)cc2)o1	.	-0.7
26	O=C(c1c[nH]c(=O)[nH]c1=O)N1CCc2ccccc2C1	.	-2.8
27	CSC(=S)NN=C1CCCC1	.	1.4
28	CCc1cccc(NC(=O)CCNS(=O)(=O)c2ccc3c(c2)oc(=O)n3C)c1	-0.264	-3.1
29	COCCN=C1Sc2nc3c(C)cccc3cc2CN1Cc1ccco1	-0.589	3.7
30	CC1CCC2(CC1)NC(=O)N(Cc1ccccc1)C2=O (stereo unspecified)	.	2.1
31	CC1Cc2ccccc2N1C(=O)c1ccnc(C(C)(C)C)c1 (stereo unspecified)	-0.405	5.9
32	Cc1ccc(NC(=O)COC(=O)C2CCCN2C2=NS(=O)(=O)c3ccccc32)cc1C (stereo unspecified)	.	-2.5
33	O=C(Cc1n[nH]c(=O)c2ccccc12)N1CCCc2ccccc21	.	0.1
34	COCc1c(C(=O)Nc2ccc(F)cc2)oc2ccccc12	.	-0.3
35	CCn1nc(NC(=O)c2cccs2)c2cc3ccccc3nc21	-0.379	2.8
36	CSC(=Nc1ccccc1C(F)(F)F)N1CCCC1	.	2.2
37	CN(C)CCCN1C(=O)C(=O)/C(=C(/O)c2ccc(S(=O)(=O)N(C)C)cc2)C1c1ccccc1 (stereo unspecified)	0.128	5.3
38	COC(=O)C1CCCN1S(=O)(=O)c1ccc(C)cc1 (stereo unspecified)	0.473	1.9
39	O=C(O)/C=C/c1ccc(-c2ccc(Br)cc2)o1	.	2.1
40	Cc1cccnc1NC(=O)c1c(O)c2cc(F)cc3c2n(c1=O)C(C)CC3 (stereo unspecified)	2.44	0.1
41	O=C(c1n[nH]c(=O)c2ccccc12)N1CCC(n2c(=O)[nH]c3ccccc32)CC1	.	1.1
42	Cn1cccc1C(=S)N=P(C1CCCCC1)(N1CCOCC1)N1CCOCC1	.	0.3
43	CCCCNC(=O)C1(NC(=O)Nc2ccccc2)CCCCC1	-0.331	2.0
44	Cn1c(-c2ccc(NC(=O)c3ccccc3)cc2)n[nH]c1=S	-0.506	-0.1
45	Cc1nc(SCc2cc(=O)n3c(C)cccc3n2)n(C2CCCC2)c1C	.	-1.9
46	NS(=O)(=O)c1ccc(NC(=O)CC(=O)Nc2ccc(S(N)(=O)=O)cc2)cc1	.	1.3
47	CCOc1ccc(S(=O)(=O)N2CCN(C(=O)c3sccc3C)CC2)cc1	.	3.0
48	CN(C)/C=N/c1nnc(SCC(=O)c2ccc(F)cc2)s1	.	2.6
49	Cc1ccc2c(c1)N(C(=O)CSc1nc3ncccc3[nH]1)CCO2	0.303	-2.5
50	N#Cc1nc(Cl)ccc1Cl	.	1.1

Shown with each value named: part of the list above
30	CC1CCC2(CC1)NC(=O)N(Cc1ccccc1)C2=O (stereo unspecified)
  LANA-nucl inh = .
  BasE inh = 2.1

47	CCOc1ccc(S(=O)(=O)N2CCN(C(=O)c3sccc3C)CC2)cc1
  LANA-nucl inh = .
  BasE inh = 3.0

31	CC1Cc2ccccc2N1C(=O)c1ccnc(C(C)(C)C)c1 (stereo unspecified)
  LANA-nucl inh = -0.405
  BasE inh = 5.9

43	CCCCNC(=O)C1(NC(=O)Nc2ccccc2)CCCCC1
  LANA-nucl inh = -0.331
  BasE inh = 2.0

Continued:
no.	SMILES	LANA-nucl inh	BasE inh
51	Cc1noc(C)c1NC(N)=O	.	1.3
52	C=C(C)n1c(=O)n(Cc2ccccc2C)c2ccccc21	0.243	-2.5
53	CCNS(=O)(=O)c1ccc(CCC(=O)N2CCCCC2)cc1	-0.429	1.1
54	O=C1CC2(CCN(C(=O)/C=C\c3ccccc3)CC2)Oc2ccccc21	-1.3	-0.5
55	N#Cc1ccsc1NC(=O)C1C2C=CC(C2)C1C(=O)O (stereo unspecified)	-0.783	0.6
56	CCN(CC)S(=O)(=O)c1c[nH]c(C(=O)OC)c1	-0.205	-1.8
57	CC1(C)CC(NC(=S)NC2CC2)CC(C)(C)N1	-0.764	1.6
58	O=C1CC(N(C(=O)c2ccco2)c2cccc(Cl)c2)C(=O)N1c1cccc(Cl)c1 (stereo unspecified)	0.565	3.7
59	O=C(Cn1cnc2ccccc21)OCC(=O)c1ccc(Cl)s1	.	-3.8
60	CCS(=O)(=O)N1CCN(Cc2ccccc2)CC1	0.693	2.9
61	CC1(C)CC(NC2=NCCCCC2)CC(C)(C)N1	.	-1.1
62	Cc1ccc(NC(=O)CSCC(=O)O)cc1	0.18	2.5
63	N#CCn1c(CSc2nncn2-c2ccccc2)nc2ccccc2c1=O	.	0.0
64	COc1ccccc1C(=O)NCc1nnc(SCC(=O)Nc2cccc(Cl)c2)n1C	-0.277	2.8
65	O=S(=O)(c1ccccc1)c1cccc(S(=O)(=O)N2CCOCC2)c1	.	1.4
66	CCN1C(=O)CC(n2c(C)nc3ccccc32)C1=O (stereo unspecified)	0.635	2.1
67	CC(C)CNC(=O)/C=C/c1ccc2c(c1)OCO2	.	0.1
68	O=C(Cn1cc(CO)c2ccccc21)Nc1ccc(F)cc1	-0.497	3.4
69	O=C(Nc1ccc2nc[nH]c2c1)C1CCCCC1	-0.196	-1.2
70	O=S(=O)(Nc1ccc(Oc2ncnc3cc(Cl)ccc23)nc1)c1ccc(-c2ccccn2)s1	.	2.3
71	O=C(O)c1cc2cc(Cl)ccc2[nH]c1=O	-0.0735	2.0
72	COc1ccccc1N1CCN(CC(O)COc2cccc3ccccc23)CC1 (stereo unspecified)	0.725&0.659&0.765	1.7
73	CC(C(=O)c1ccccc1)S(=O)(=O)c1ccccc1 (stereo unspecified)	-0.41	4.7
74	CCNS(=O)(=O)c1ccc(NC(=O)c2nc3nc(C)cc(C(F)F)n3n2)cc1	-0.964	0.8
75	Cc1cc2oc(=O)cc(CN(C)c3ccccc3)c2cc1C	.	3.1

An excerpt from above in order of molar mass, rising.
no.	SMILES	LANA-nucl inh	BasE inh
61	CC1(C)CC(NC2=NCCCCC2)CC(C)(C)N1	.	-1.1
66	CCN1C(=O)CC(n2c(C)nc3ccccc32)C1=O (stereo unspecified)	0.635	2.1
72	COc1ccccc1N1CCN(CC(O)COc2cccc3ccccc23)CC1 (stereo unspecified)	0.725&0.659&0.765	1.7

Other compounds.
no.	SMILES	LANA-nucl inh	BasE inh
76	CCc1nnc(NC(=O)c2c(O)c3ccccc3n(C)c2=O)s1	-2.04	0.5
77	C=CCNC(=O)c1cccc(Oc2ccccc2)c1	2.36	-4.8
78	N#Cc1cc2c(ccc3ccccc32)oc1=N	-0.939	-7.3
79	O=C(CN1C(=O)c2ccccc2C1=O)ON=C1CCCCC1	-0.529	1.9
80	Cc1ccc(N(C(=O)c2ccco2)C(C(=O)NC2CCCC2)c2ccc(N(C)C)cc2)c(C)c1 (stereo unspecified)	1.29	-1.2
81	C=CCN(CC=C)C(=S)Nc1ccc2nc(C)c(C)nc2c1	-0.743	0.5
82	CC1(C(=O)O)COC(c2ccc(Cl)cc2)OC1 (stereo unspecified)	1.24	-1.2
83	CN(C)C(CNc1ncnc2sccc12)c1cccs1 (stereo unspecified)	.	-2.1
84	CC(O)CNc1nc2ccccc2nc1-c1ccccc1 (stereo unspecified)	-0.005	1.9
85	O=C(Nc1ccc(S(=O)(=O)NC23CC4CC(CC(C4)C2)C3)cc1)C1CC1	.	0.5
86	COc1cc(OC)c2c(C)cc(=O)oc2c1	2.73	-3.7
87	CCCCNC(=O)C12CCC(C)(C(=O)C1)C2(C)C (stereo unspecified)	-0.269	3.5
88	CC(=O)Nc1ccccc1N1CCN(S(C)(=O)=O)CC1	-1.39	0.0
89	CC(C(=O)N1CCCC1)N1CCN(S(=O)(=O)c2cccs2)CC1 (stereo unspecified)	.	-1.2
90	C#CCSc1nnc2[nH]c(=O)cc(CCC)n12	0.312	-1.4
91	CCCN(CCC)S(=O)(=O)c1ccc(C(=O)Nc2ccc(F)cc2F)cc1	0.164	.
92	COC(=O)CSc1nc2cc(OC)c(OC)cc2cc1C	-0.51	2.0
93	CSc1nc(-n2nc(C)cc2C)c2c3c(sc2n1)COC(C)(C)C3	-0.0195	0.5
94	CCN(CC)C(=S)N=P(c1ccccc1)(N1CCOCC1)N1CCOCC1	.	-2.7
95	O=C(CN1CCC(c2nc3ccccc3[nH]2)CC1)N1CCCCC1	0.458	8.1
96	O=C(Cc1ccccc1)Nc1c(C(=O)N2CCCC2)oc2ccccc12	.	2.1
97	Cc1cc(C(=O)N/N=C/C(C)(C)C)nn1C	0.702	-0.6
98	NC(=O)CSc1ccccc1NC(=O)c1cc(-c2cccs2)nn1-c1ccccc1	.	-0.8
99	Cc1csc(NC(=O)CSc2ccc(Cl)cc2)c1C(N)=O	.	1.8
100	CN(Cc1nc2ccccc2n1C)C(=O)c1ccc(Cl)cc1	-1.82	0.2
101	CSc1ccccc1NC(=O)CN1CCc2ccccc21	.	0.2
102	CCN(C(=O)c1cccs1)c1ccccc1	-0.874	1.2
103	CC1(C)C/C(=N/O)c2ccoc2C1	-0.462	1.3
104	CCn1cc(C(=O)O)c(=O)c2cc(F)c(N3CCN(C(=S)Nc4ccc5c(c4)OCO5)CC3)cc21	0.377	-1.2
105	O=C(NCCO)C1=C(N2CCOCC2)/C(=C\c2ccccc2)CC1	.	0.2
106	COc1ccc(-c2nnn(CCC(=O)O)n2)cc1	0.47	-0.7
107	Cn1nnnc1SCC(=O)N1CC2(C)CC1CC(C)(C)C2 (stereo unspecified)	.	1.1
108	O=C(CSc1c(-c2ccccc2)c2cc(Cl)ccc2[nH]c1=O)NCc1ccco1	.	1.1
109	O=C(Nc1ccc2nonc2c1)N1CCOCC1	.	-2.1
110	CCC(c1ccc(F)cc1)n1cc(C(=O)NCCc2ccco2)nn1 (stereo unspecified)	0.178	-1.6
111	O=C(CN1C2=NCCN2c2ccccc21)c1ccc(O)cc1	0.49	-7.2
112	O=C(COC(=O)CCc1ccc(S(=O)(=O)N2CCOCC2)cc1)Nc1ccccc1OC(F)F	.	3.1
113	Cc1cc2ccccc2n1-c1ccc(C(=O)N2CCC(C(=O)NC3CC3)CC2)s1	0.304	1.1
114	Nc1nc(CCC(=O)OCC(=O)Nc2ccc(F)cc2)nc(Nc2ccccc2)n1	.	3.0
115	O=S(=O)(Cc1ccccc1Cl)NCc1cccnc1	0.875	0.6
116	C=Cc1ccc(CN2C(=O)N(c3ccccc3)C3CS(=O)(=O)CC32)cc1 (stereo unspecified)	0.141	-0.8
117	O=C(Nc1ccnn1C1CCCCC1)c1cccnc1Nc1ccccc1F	.	1.5
118	Cc1nn(-c2ccc(F)cc2)c2sc(C(=O)N(Cc3ccco3)Cc3cccs3)cc12	.	1.4
119	CN1CCN(C(=O)CN2C(=O)/C(=C/c3ccccc3)SC2=S)CC1	-0.423	2.5
120	COc1ccc(-n2ncc(C(=O)Nc3ccccn3)c2C2CCN(C(=O)OC(C)(C)C)CC2)cc1	.	0.2
121	CC(=O)NN=C(C1CC1)C1CC1	.	1.2
122	CN(C)C1(CNC(=O)Nc2ccccc2)CCCCC1	.	0.6
123	Clc1nc2c(Cl)cccc2s1	0.189	1.8
124	Cc1ccc(CNCc2ccccc2)s1	-0.444	-2.5
